Screening data from PubChem BioAssay.
PKD1 kinase inh: inhibitors of human PKD1 kinase, biochemical, fluorescence polarization; Serine/threonine-protein kinase D1 (Homo sapiens), Q15139; PKD1 kinase fluorescence polarization assay; inhibition, %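 (about 10 µM by stock and volumes)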; 200,000 compounds, 0.056% hits; AID 797, 2007;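 active = inhibition of 50% or more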;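 also: controls were vehicle for no effect and a reference inhibitor for full effect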
RGS16-Gao HTS: modulators of RGS16 binding to Galphao, primary screen, biochemical, human proteins, multiplexed bead flow cytometry; bead-based flow cytometry RGS16-Galphao binding, fluorescence; actives lie on both sides; binding response (% of control), % at 10 µM; 220,000 compounds, 0.38% hits;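 active = below 25% or above 175%, edge rows of some plates excepted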;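 also: Galphao activated by GDP with aluminum fluoride before binding; 100% = wells without compound and 0% = beads without RGS; some results beyond the cut were filed as inactive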
Target sequence (O15492 whole entry, looked up): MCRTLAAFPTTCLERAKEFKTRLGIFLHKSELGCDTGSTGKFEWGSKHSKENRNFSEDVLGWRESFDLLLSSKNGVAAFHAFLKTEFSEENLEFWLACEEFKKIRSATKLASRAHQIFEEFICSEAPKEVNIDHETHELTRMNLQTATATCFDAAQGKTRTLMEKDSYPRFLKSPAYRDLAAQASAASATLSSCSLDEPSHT
Target sequence (P09471 whole entry, looked up): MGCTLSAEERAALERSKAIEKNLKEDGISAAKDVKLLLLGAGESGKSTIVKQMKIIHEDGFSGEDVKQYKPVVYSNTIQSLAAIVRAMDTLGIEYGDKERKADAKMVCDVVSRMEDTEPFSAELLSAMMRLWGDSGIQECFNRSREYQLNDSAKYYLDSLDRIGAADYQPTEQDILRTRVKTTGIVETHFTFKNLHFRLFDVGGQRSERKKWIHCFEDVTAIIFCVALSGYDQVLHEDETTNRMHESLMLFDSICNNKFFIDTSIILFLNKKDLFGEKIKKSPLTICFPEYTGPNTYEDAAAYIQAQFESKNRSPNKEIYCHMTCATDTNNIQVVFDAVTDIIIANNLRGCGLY
Insulin prom inh: inhibitors of insulin promoter-driven GFP, primary screen, imaging, TRM-6 cells (human fetal islet line), eGFP reporter, cell count | reporter expression induced with tamoxifen | inhibition, % at 2 µM | 130,000 compounds, 0.9% hits;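 active = inhibition above the mean plus 3 SD, with well images judged a real hit on visual review, cut at about 60% in these data, passing the limit was not always enough; inconclusive = inhibition over the cutoff but images rejected on review; inactive = inhibition not above the cutoff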
GALR2 ag: GALR2 receptor agonists, primary screen, cell-based | Galanin receptor type 2 (Homo sapiens), O43603 | GALR2-expressing cells, agonist activation read-out | activation, %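 (tested at 5 µM)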 | 140,000 compounds, 0.48% hits | AID 803, 2007;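 active = above mean plus 3 SD of all compounds, about 5% in these data, not always enough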;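 also: 0% = vehicle buffer wells and 100% = reference agonist at full effect; tested in CHO reporter cells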
Target sequence (O43603 whole entry, looked up): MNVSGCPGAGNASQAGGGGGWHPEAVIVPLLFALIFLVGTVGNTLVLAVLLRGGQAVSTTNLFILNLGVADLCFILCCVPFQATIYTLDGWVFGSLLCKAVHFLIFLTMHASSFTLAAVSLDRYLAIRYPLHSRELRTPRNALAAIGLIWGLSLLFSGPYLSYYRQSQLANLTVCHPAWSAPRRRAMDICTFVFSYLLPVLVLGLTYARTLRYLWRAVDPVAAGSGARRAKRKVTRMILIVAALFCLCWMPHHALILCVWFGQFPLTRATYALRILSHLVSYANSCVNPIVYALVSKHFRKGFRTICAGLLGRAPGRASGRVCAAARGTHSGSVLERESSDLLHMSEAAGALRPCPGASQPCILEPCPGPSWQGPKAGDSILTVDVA
HSV replic up: enhancers of HSV replication in host cells, fold increase, host cell viability | maximum fold increase | 220,000 compounds, 0.005% hits | HSV replication augmentation in cells | AID 1956, 2009;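 active = peak rise of 1.5-fold or more in the series; inconclusive = self-fluorescent or not available for retest; tested in PC3 cells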;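 also: first round at 10 µM; read as green reporter fluorescence; hits show the peak of a series up to 25 µM; 1 = signal of infected wells without compound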
Insulin prom inh cell count: further read-out of Insulin prom inh, marked with its call; normalized cell count, %; measured here: cell count, toxicity; reference of the scale not given here;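 cells exposed to compound for 48 h; stained nuclei by imaging scaled within each plate; lower means fewer cells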
HSV replic up primary fold: also measured in HSV replic up; calls as there; fold increase; compound at 10 µM; measured here: primary screen fold increase 10 uM; tested in PC3 cells;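 GFP signal in the first replicate; 1 = infected wells without compound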
The depositor's hits bear a star; i = inactive; ? = inconclusive; . = not tested or not shown. Compounds were not picked by outcome; about 1.1% have a hit in one of these screens.

SMILES	PKD1 kinase inh	RGS16-Gao HTS	Insulin prom inh	Insulin prom inh cell count	GALR2 ag	HSV replic up	HSV replic up primary fold
Cc1cc(C(=O)N/N=C/c2c(C)n(C)c3ccccc23)n[nH]1	1	103	0	117	-2.3	i	0.83
CCN(CC)CCNc1ncnc2c1sc1nc(N3CCOCC3)c3c(c12)CC(C)(C)SC3	-5	105	17	206	0.2	i	0.62
O=C(Nc1ccc(Cl)cc1)Nc1nnc(/C=C/c2ccccc2)s1	.	102	.	.	.	i	0.95
C=C(C)C(=O)N1CC2(CC(c3cccc(NC(=O)CC)c3)=NO2)C[C@H]1C(N)=O (stereo partly specified)	.	105	.	.	.	i	0.81
CCC(C)Nc1nc2c(C)cccn2c(=O)c1C=Nc1ccc(OC)cc1 (stereo unspecified)	-4	102	-41	121	.	i	1
Cc1ccc(N2CCN(C(=O)c3ccccc3NC(=O)/C=C\C(=O)O)CC2)cc1	-7	98	.	.	-1.2	i	0.98
CCCC(C(=O)N1CCOCC1)N1C(=O)C2C3C=CC(C3)C2C1=O (stereo unspecified)	-8	101	.	.	-2.8	i	1
CC(=O)Nc1cccc(NC(=O)c2cc3ccccc3o2)c1	-8	99	.	.	-1.3	i	0.94
O=C(CSc1nncc2ccccc12)N1CCCCC1	-8	101	19	157	.	i	0.73
O=C(Nc1cccc(F)c1)OC(CN1CCCCC1)C(F)(F)F (stereo unspecified)	-10	100	-11	182	-2.7	i	0.93
CCOCCCNC(=O)/C(C#N)=C/c1ccc([N+](=O)[O-])o1	-8	103	.	.	.	i	0.91
CN(C)C(=O)/C=C\c1cn(-c2ccccc2)nc1-c1ccc2c(c1)OCCO2	1	94	.	.	.	i	0.63
O=C(CN1CCCC1)Nc1c(C(=O)C2CC2)oc2ccccc12	.	101	.	.	.	i	0.93
O=C(CSc1nc2[nH]ncc2c(=O)[nH]1)NCc1ccccc1	-5	96	20	142	-0.6	i	1.1
CC(=NCCN1CCN(C(C)=C2C(=O)c3ccccc3C2=O)CC1)C1=C(O)CC(C)(C)CC1=O	3	91	15	115	-0.9	i	1.1
Cc1cc(/C=C2\SC(=S)NC2=O)cc(C)c1O	.	111	.	.	.	i	1.2
Cc1cc(NC(=O)NC2CCCN2S(=O)(=O)c2ccc(Cl)cc2)no1 (stereo unspecified)	5	100	.	.	-2.0	i	0.93
COc1ccc(-c2noc(CN3C(=O)c4ccccc4C3=O)n2)cc1	-9	106	-6	92	-1.1	i	0.94
O=C(COC(=O)c1ccc(F)cc1)Nc1nc2ccc([N+](=O)[O-])cc2s1	1	102	.	.	.	i	0.99
Cc1cc(NC(=O)CCN2C(=O)/C(=C/c3ccccc3F)SC2=S)no1	0	83	-42	86	.	i	0.96
Cc1noc2ncnc(SCc3ccc(C(F)(F)F)cc3)c12	.	104	.	.	.	i	1.1
c1ccc(Oc2cccc(CN3CCCCC3)c2)cc1	-5	106	-23	100	-1.6	i	0.87
COc1cc(-c2nc3c(c(C)nn3-c3ccccc3)c3cc(OC)c(OC)cc23)ccc1O	-7	104	32	141	-2.1	i	0.76
COC(=O)Cn1c(=O)c2c(nc3n2CC(C)CN3c2ccc(C)c(C)c2)n(C)c1=O (stereo unspecified)	.	98	.	.	.	i	0.85
c1ccc(Oc2cccc(OCCCn3cncn3)c2)cc1	-7	97	40	138	-3.6	i	0.92
O=C(O/N=C(/c1ccccc1)c1ccncc1)c1cccc(F)c1	-1	69	29	108	.	i	0.98
CCN(C(=O)COC(=O)/C=C/c1ccccc1)C1CCCCC1	-8	106	8	93	.	i	0.89
CC(C)CC(C(=O)NC1CCCC1)N(Cc1ccc2c(c1)OCO2)C(=O)c1snc(C(N)=O)c1N (stereo unspecified)	7	102	.	.	.	i	0.85
O=C(O)CCC(=O)Nc1cc(C(F)(F)F)cc(C(F)(F)F)c1	.	85	.	.	.	i	1.2
Cc1ccc(CNC(=O)NC23CC4CC(CC(C4)C2)C3)cc1	-8	103	-64	85	-0.5	i	0.98
Cc1c(Cl)cccc1NC(=S)NCCc1ccccn1	.	106	.	.	.	i	0.78
COc1ccccc1NC(=O)CN(c1ccccc1F)S(C)(=O)=O	0	101	-331	54	-2.5	i	0.88
CCN(C(=O)CCCC(=O)N(CC)c1ccccc1)c1ccccc1	-5	105	-75	129	0.5	i	0.91
COc1ccc(NC(=O)C(C)SCc2ccccc2)cc1OC (stereo unspecified)	-3	101	.	.	-0.7	i	1.2
COc1cccc(NC(=O)c2ccc(NC(=O)C(C)C)cc2)c1	0	95	.	.	.	i	0.99
COc1ccc2ccccc2c1C(O)c1nccn1C (stereo unspecified)	18	100	.	.	-3.2	?	.
Cc1onc(-c2ccccc2Cl)c1C(=O)Nc1ccc(-c2cn3cccnc3n2)cc1	6	109	-55	155	0.8	i	1.1
COc1ccc(C2CC(c3ccccc3)=NN2C(=O)CN2CCN(Cc3ccccc3)CC2)cc1 (stereo unspecified)	-11	100	.	.	.	i	1
NCCc1nnc(SCc2c(F)cccc2Cl)o1	18	101	0	96	-4.1	i	1
Cc1cnc(NC(=O)CSC(=S)N2CCOCC2)s1	0	100	3	104	.	i	0.91
CCOC(=O)NC(=O)C(=CNc1ccc(C)cc1)C(=O)NC(=O)OCC	-5	104	-8	69	-1.9	i	0.95
Oc1ccccc1-c1nc(N2CCN(Cc3ccccc3)CC2)c2ccccc2n1	-8	104	.	.	-2.0	i	0.85
CCOCCCN1C(=O)CN(C2CCCCCC2)C(=O)C1c1ccc(OC)cc1 (stereo unspecified)	-12	129	-33	100	-1.9	i	0.67
CCOC(=O)c1ccc(NC(=S)N(CCCN2CCCC(C)C2)Cc2cccs2)cc1 (stereo unspecified)	7	98	.	.	.	i	0.72
Cc1ccc(OCC(=O)N/N=C/c2cn[nH]c2-c2ccc(Cl)c(Cl)c2)cc1	-2	96	.	.	-0.9	i	0.77
CC(NS(=O)(=O)c1ccccc1)C(=O)Nc1nccs1 (stereo unspecified)	-1	104	0	106	0.5	i	0.8
CCCCNC(=O)Nc1nnc(-c2ccccc2)o1	4	99	35	59	-1.6	i	0.88
CCOC(=O)N1CCC(NC(=O)CCc2nc(-c3ccc(C)cc3)no2)CC1	-2	104	25	98	-1.9	i	0.97
CN(CC(=O)Nc1ccccc1Sc1ccccc1)Cc1nc2ccccc2c(=O)[nH]1	-4	103	.	.	.	i	0.8
COc1ccccc1C(O)Cc1nc2ccccc2n1C (stereo unspecified)	-2	103	-17	205	-1.3	i	0.83
O=C(O)c1ccc(Nc2cnc3ccccc3n2)cc1	-5	109	-25	157	.	i	1
CC1CCCN(C(=O)COc2ccc(-c3ccccc3)cc2)C1 (stereo unspecified)	-3	109	.	.	.	i	0.95
Cc1ccc(-n2nc(C)c3onc(C)c3c2=O)cc1	.	98	.	.	.	i	0.99
CCOC(=O)c1cnc2ccc(Br)cc2c1NCCO	-6	100	-11	163	-1.8	i	0.73
CC(C)CC(NC(=O)C(NC(=O)OC(C)(C)C)C(C)C)C(=O)N1CCCC1C(N)=O (stereo unspecified)	-12	98	.	.	-0.2	i	1
CC1(C)CC(=O)C2=C(C1)NC(SCC(N)=O)=C(C#N)C21CCCCC1	-1	106	-12	77	-0.1	i	0.99
CCCCC(c1nnnn1CC1CCCO1)N1CCN(Cc2ccccc2)CC1 (stereo unspecified)	-3	112	25	167	-1.8	i	1.1
COC(=O)Cc1ccc(NC(=S)NCC(C)C)cc1	3	57	.	.	-1.5	i	0.93
CCOc1ccc2nc(NCCCNS(=O)(=O)c3ccc(C)cc3)c(C#N)cc2c1	-10	92	19	131	0.9	i	0.92
COc1ccc(-c2csc3nc(C)n(-n4cccc4)c(=O)c23)cc1OC	-10	107	31	120	-2.3	i	1.1
Continued:
SMILES	PKD1 kinase inh	RGS16-Gao HTS	Insulin prom inh	Insulin prom inh cell count	GALR2 ag	HSV replic up	HSV replic up primary fold
O=C(/C=C/c1ccco1)Nc1cccc2cccnc12	-9	94	-3	189	-0.3	i	1.4
C=CCNC(=O)c1ccccc1NC(=O)Cc1ccccc1[N+](=O)[O-]	0	51	.	.	-1.3	i	1.1
CCc1ccc(C2=NN(C(C)=O)C(c3ccco3)C2)cc1 (stereo unspecified)	-11	102	.	.	.	i	0.94
CCS(=O)(=O)N1CCCC(C(=O)NCCc2ccc(OC)c(OC)c2)C1 (stereo unspecified)	-7	95	-295	75	-2.1	i	0.88
COc1ccccc1NC(=O)C(CC=C(Cl)Cl)C(C)=O (stereo unspecified)	-1	99	23	77	-1.6	i	1
Cc1cc(/C=C(/C#N)C(=O)Nc2ccc(Cl)cc2)c(C)n1-c1cccnc1	1	106	8	115	2.0	i	0.94
CCN(CC)S(=O)(=O)c1cccc(C(=O)NC(C(=O)NC2=NCCS2)C(C)C)c1 (stereo unspecified)	4	113	-14	147	-0.8	i	0.91
C=CCn1c(Oc2cc(C)ccc2C)nc2c1c(=O)n(C)c(=O)n2C	-12	100	19	166	-2.4	i	0.77
CCc1ccc(N(C(C)=O)C2C=CS(=O)(=O)C2)cc1 (stereo unspecified)	-1	103	-120	91	-2.9	i	0.75
Cc1ccc(S(=O)(=O)N(C(=O)c2ccco2)c2cc3sc(=O)oc3c3ccccc23)cc1	5	92	-17	60	-1.2	i	1.1

Of the compounds above, 13 contain an aryl methoxy group:
SMILES	PKD1 kinase inh	RGS16-Gao HTS	Insulin prom inh	Insulin prom inh cell count	GALR2 ag	HSV replic up	HSV replic up primary fold
CCC(C)Nc1nc2c(C)cccn2c(=O)c1C=Nc1ccc(OC)cc1 (stereo unspecified)	-4	102	-41	121	.	i	1
COc1ccc(-c2noc(CN3C(=O)c4ccccc4C3=O)n2)cc1	-9	106	-6	92	-1.1	i	0.94
COc1cc(-c2nc3c(c(C)nn3-c3ccccc3)c3cc(OC)c(OC)cc23)ccc1O	-7	104	32	141	-2.1	i	0.76
COc1ccccc1NC(=O)CN(c1ccccc1F)S(C)(=O)=O	0	101	-331	54	-2.5	i	0.88
COc1ccc(NC(=O)C(C)SCc2ccccc2)cc1OC (stereo unspecified)	-3	101	.	.	-0.7	i	1.2
COc1cccc(NC(=O)c2ccc(NC(=O)C(C)C)cc2)c1	0	95	.	.	.	i	0.99
COc1ccc2ccccc2c1C(O)c1nccn1C (stereo unspecified)	18	100	.	.	-3.2	?	.
COc1ccc(C2CC(c3ccccc3)=NN2C(=O)CN2CCN(Cc3ccccc3)CC2)cc1 (stereo unspecified)	-11	100	.	.	.	i	1
CCOCCCN1C(=O)CN(C2CCCCCC2)C(=O)C1c1ccc(OC)cc1 (stereo unspecified)	-12	129	-33	100	-1.9	i	0.67
COc1ccccc1C(O)Cc1nc2ccccc2n1C (stereo unspecified)	-2	103	-17	205	-1.3	i	0.83
COc1ccc(-c2csc3nc(C)n(-n4cccc4)c(=O)c23)cc1OC	-10	107	31	120	-2.3	i	1.1
CCS(=O)(=O)N1CCCC(C(=O)NCCc2ccc(OC)c(OC)c2)C1 (stereo unspecified)	-7	95	-295	75	-2.1	i	0.88
COc1ccccc1NC(=O)C(CC=C(Cl)Cl)C(C)=O (stereo unspecified)	-1	99	23	77	-1.6	i	1
